Screening results deposited in PubChem BioAssay by National Center for Advancing Translational Sciences (NCATS).
TRPML1 blocker: inhibitors of human TRPML1 channel; 390,000 tested, 0.02% active; TRPML1-inducible cells, Ca2+ dye fluorescence, FDSS; hits give low values; inhibition of EC80 agonist-evoked calcium signal; Q9GZU1; activity change, negative = inhibition, % (test concentration not listed); in the data active means activity change below about -50%; inconclusive means about -30% to -50%; inactive means above about -30%;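 further: stimulus is agonist 54-4 at its EC80 concentration; on the % scale 0 is the no-effect control and ±100 the full control effect; compound concentration not given in the record; the text of the record puts the active cut at -80%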
Target sequence (Q9GZU1 whole entry, looked up): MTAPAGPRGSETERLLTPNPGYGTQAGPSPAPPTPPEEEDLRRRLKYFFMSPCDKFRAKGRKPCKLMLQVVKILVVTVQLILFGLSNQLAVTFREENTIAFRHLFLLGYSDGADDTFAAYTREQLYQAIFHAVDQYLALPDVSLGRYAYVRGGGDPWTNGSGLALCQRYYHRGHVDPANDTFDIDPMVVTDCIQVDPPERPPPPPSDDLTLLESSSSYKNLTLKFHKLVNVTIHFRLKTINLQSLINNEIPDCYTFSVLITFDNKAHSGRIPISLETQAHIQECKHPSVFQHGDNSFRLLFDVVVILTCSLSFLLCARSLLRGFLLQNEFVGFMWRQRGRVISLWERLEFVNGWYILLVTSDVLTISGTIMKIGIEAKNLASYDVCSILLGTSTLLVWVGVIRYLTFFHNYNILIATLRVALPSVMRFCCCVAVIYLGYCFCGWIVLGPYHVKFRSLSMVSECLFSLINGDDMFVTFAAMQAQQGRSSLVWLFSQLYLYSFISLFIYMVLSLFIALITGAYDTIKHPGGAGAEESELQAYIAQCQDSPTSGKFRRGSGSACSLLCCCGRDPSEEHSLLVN
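Tet-induced TRPML1-DL cells loaded with Ca8 no-wash calcium dye were read kinetically on FDSS. Compound addition was followed by EC80 agonist 54-4 (4 uM final); inhibition was read over 110 s.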
TRPML1 ag: agonists of human TRPML1 channel; Q9GZU1; TRPML1-expressing cells, Ca2+ dye fluorescence, FDSS; host cell line not named in the record; reference of the full effect not given here; activation, % (no concentration beside the values); 410,000 tested, 0.12% active; AID 624414; in the data active = activation above about 50%; inconclusive = about 30% to 50%; inactive = below about 30%; further: 0% is about no effect; the text of the record puts the active cut at 80%
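Tetracycline-induced TRPML1-DL cells are seeded and incubated overnight before loading with a no-wash Ca2+ dye and quencher. Agonist activity is taken from the 110 s fluorescence read following compound pin-transfer on an FDSS, before EC80 54-4 challenge.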
Six1-Eya2 inh: Six1/Eya2 interaction inhibition | Q15475+O00167 | AlphaScreen GST-Six1/His-Eya2 binding, biochemical; hits give low values; control for the full effect not named in the record | activity change, % (no concentration beside the values) | 360,000 tested, 0.56% active; in the data active = activity change below about -65%; inconclusive = about -30% to -65%; inactive = above about -30%; further: on the % scale 0 is the no-effect control and ±100 the full control effect; compound concentration not given in the record
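AlphaScreen with GST-Six1 and His-Eya2 (5X mix: 250 nM and 500 nM), glutathione donor and nickel acceptor beads; buffer 50 mM Tris pH 8.0, 300 mM NaCl, 1 mM TCEP; 1 h at 37 C in the dark.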
PINK1 modulator: modulators of PINK1 expression | Potency, µM (titrated, usually from 76.6 µM), for the others: top-dose activation (PINK1 increase), actives largely listed as activators | PINK1 immunofluorescence, high-content cytometry, 24 h | 410,000 tested, 0.2% active | AID 624263; active = well fitted activation curve with a large enough effect; inconclusive = small, poorly fitted or top-dose-only effect; inactive = flat fitted curve, though single readings scatter; cell line not stated here;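 further: potency means the concentration at half of the fitted maximal effect; % of control where 0% means no effect; nearly all actives have a fitted effect of over 65% in size; a mitochondrial uncoupler was the plate control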
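Readout is PINK1 immunofluorescence, quantified alongside mitochondrial, cell and nuclear markers by laser-scanning microplate cytometry. Cells from a stable line were exposed to compound titrations (5 concentrations) for 24 hours, with CCCP controls.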
D2 ag: human D2 receptor agonism in beta-arrestin assay. P14416. DiscoveRx PathHunter D2 beta-arrestin, luminescence, 90 min; 100% = 57 uM dopamine signal. activation, % (test concentration not listed). 360,000 tested, 0.084% active; in the data active = activation above about 40%; inconclusive = about 15% to 40%; inactive = below about 15%; further: compound concentration not given in the record; the text of the record calls up to 30% inactive
Target sequence (P14416 whole entry, looked up): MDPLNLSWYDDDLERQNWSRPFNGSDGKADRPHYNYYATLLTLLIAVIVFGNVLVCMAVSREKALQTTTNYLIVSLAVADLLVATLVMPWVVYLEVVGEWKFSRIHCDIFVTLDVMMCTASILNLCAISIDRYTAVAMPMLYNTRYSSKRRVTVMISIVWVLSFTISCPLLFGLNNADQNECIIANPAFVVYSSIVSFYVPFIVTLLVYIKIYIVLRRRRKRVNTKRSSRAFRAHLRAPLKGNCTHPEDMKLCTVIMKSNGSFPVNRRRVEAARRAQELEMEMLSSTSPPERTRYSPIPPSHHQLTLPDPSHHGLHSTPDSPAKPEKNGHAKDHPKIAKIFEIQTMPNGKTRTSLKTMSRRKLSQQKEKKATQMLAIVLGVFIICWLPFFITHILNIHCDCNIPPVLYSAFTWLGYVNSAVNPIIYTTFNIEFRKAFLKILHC
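DiscoveRx PathHunter D2 beta-arrestin cells (2,100/well) attached overnight, then compound-stimulated 90 min at 37 C in HBSS/10 mM HEPES/0.1% Tween-20 buffer; beta-galactosidase complementation read by luminescence after 1 h at ambient temperature. Dopamine 57 uM final (EC100) as control.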
D2 potentiator: human D2 receptor positive allosteric modulation; potentiation, % (test concentration not listed); P14416; DiscoveRx D2 beta-arrestin cells, luminescence, 90 min; 100% = 57 uM dopamine signal; 360,000 tested, 0.23% active; active = potentiation of 50% or more; inconclusive = 30% to 50%; inactive = 30% or less;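 further: compound concentration not given in the record; tested on top of an EC20 dose of dopamine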
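D2 cells co-treated with compound plus 50 nM dopamine (EC20) for 90 min at 37 deg C to detect potentiation. Beta-arrestin recruitment was read as enzyme-fragment luminescence after 1 h at ambient temperature. Full response was set by 57 uM dopamine.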
* hit, by the source's call; ? = inconclusive; . = not tested or not shown; [ ] = remark or other dose.

SMILES	TRPML1 blocker	TRPML1 ag	Six1-Eya2 inh	PINK1 modulator	D2 ag	D2 potentiator
O=C(Nn1cnc2ccccc2c1=O)c1c(F)cccc1F	5	0.5	1	1.1%	-3.3	-12
CC(=O)Nc1nc(CC(C)C)cc(-c2ccco2)c1C#N	11	-0.7	5	2.3%[38.3 µM]	-0.2	6
O=C(N/N=C\c1ccc(O)c([N+](=O)[O-])c1)c1ccccc1-n1cccc1	21	-0.3	-1	-2.1%	-6.5	-23
COCCn1c(C)cc(C(=O)CSc2nnc(-c3cccnc3)n2-c2ccccc2F)c1C	-9	-0.1	-2	.	10	4
COc1ccccc1Cn1c(C)c(C(=O)NCc2ccco2)sc1=O	.	-1.3	-8	0.2%	-3.3	-1
Cc1ccccc1-c1nc(CN2CCC(C(=O)NCCCN3CCCC3)CC2)c(C)o1	0	-0.1	1	10%	-1.3	-10
COc1cc(Nc2ncnc(N)n2)cc(OC)c1OC	-8	0.5	5	0.8%	1.8	0
CCc1nnc(NC(=O)c2ccc(N3C(=O)CCC3=O)cc2)s1	-16	0.3	12	2.3%	-4.6	-4
O=C1N2CCSC2=NC1(Nc1nccs1)C(F)(F)F (stereo not given)	0	-0.3	5	.	-0.1	11
O=C(c1ccccc1Cl)N1CCN(Cc2ccc3c(c2)OCO3)CC1	8	-0.3	-7	2.6%	-2.8	-3
O=C(c1ccc(NC(=O)C(c2ccccc2)c2ccccc2)cc1)c1ccc(C(=O)O)c(C(=O)O)c1	1	-0.1	-3	1.7%	0.5	13
O=C(NCC(c1ccc(F)cc1)N1CCOCC1)c1cc(F)c(F)c(F)c1F (stereo not given)	1	2.5	-5	2.3%	0.5	-4
COc1ccc(CCNC(=O)CSc2nc3ncccc3[nH]2)c(OC)c1	-6	1.1	-1	-0.9%	2.3	-4
COc1ccccc1N1CCN(S(=O)(=O)c2cccc3nsnc23)CC1	-1	-0.3	-21	-0.9%[38.3 µM]	0.5	-1
COc1cccc(C(C(=O)NCc2ccco2)N(C(=O)Cn2nnc3ccccc32)C2CC2)c1OC (stereo not given)	-6	-0.2	-6	-1.0%	2.5	-24
Oc1cc2ccccc2cc1-c1nnc2n1-c1ccccc1SC2	-10	-0.4	-2	2.6%	-5.0	-15
O=C(COc1ccc(Br)cc1)OCC(=O)N1CCOCC1	18	-1.8	-7	1.2%	-0.7	-3
CSCCC(NC(=O)c1ccccc1)C(=O)Nc1ccncc1 (stereo not given)	-9	1.5	5	-1.3%	3.4	-1
Cc1cccc(Oc2nc3c(C)cccn3c(=O)c2/C=C(\C#N)c2nc3ccccc3s2)c1	9	-0.1	.	8.8%	.	.
CCOC(=O)N1CCN(C(=O)CSc2nnc(-c3cccc(OC)c3)o2)CC1	-5	-0.1	-6	1.0%	1.7	-11

Quoted at random: 2 compounds from above
SMILES	TRPML1 blocker	TRPML1 ag	Six1-Eya2 inh	PINK1 modulator	D2 ag	D2 potentiator
CSCCC(NC(=O)c1ccccc1)C(=O)Nc1ccncc1 (stereo not given)	-9	1.5	5	-1.3%	3.4	-1
CCOC(=O)N1CCN(C(=O)CSc2nnc(-c3cccc(OC)c3)o2)CC1	-5	-0.1	-6	1.0%	1.7	-11

(more compounds)
SMILES	TRPML1 blocker	TRPML1 ag	Six1-Eya2 inh	PINK1 modulator	D2 ag	D2 potentiator
Cc1cc(C)cc(N=c2c([N+](=O)[O-])nn(-c3ccc(Cl)cc3)n2O)c1	-7	1.6	?	7.9%	12	?
CC(=O)Nc1ccc(NC(=O)CCCn2nc(C)c3sc4ccccc4c3c2=O)cc1	3	0.5	.	5.2%	.	.
CCOc1ccc(S(=O)(=O)Nc2cccc(N(C)S(C)(=O)=O)c2)cc1	-10	-0.7	-3	1.3%	0.9	-6
CC(C)c1nc2oc3ccccc3c(=O)c2c(=O)n1-c1ccccc1	11	1.3	-1	10%[38.3 µM]	-4.6	-6
Cn1ccnc1SCC(=O)Nc1ccc(Cl)cn1	-11	-0.7	5	0.6%	-4.3	-9
O=C(Nc1ccc(Br)cc1)c1cnccn1	-2	0.6	4	.	-2.0	-10
CN(C)C(=O)c1c(-c2ccccc2)oc2ccc(O)cc12	-9	0.5	0	1.9%[38.3 µM]	-1.5	2
COc1ccc(N2CCN(C(=O)c3ccc4nc(N5CCC(C)CC5)sc4c3)CC2)cc1	-10	-1.1	.	0.4%	.	.
COc1ccc(C2NCCc3c2[nH]c2ccccc32)cc1COc1ccc(F)cc1 (stereo not given)	4	1.4	-21	-1.2%	-6.2	-3
COC(=O)c1sc2ncn(N)c(=O)c2c1C	.	.	1	0.8%	-3.6	0
CCn1ccc(C(=O)Nc2ccc(N(C)C(C)=O)cc2)n1	2	-0.3	4	0.9%	1.4	-5
O=C(CN1C(=O)c2ccccc2S1(=O)=O)N1CCN(c2cccc(Cl)c2)CC1	55	0.1	-9	3.6%	-2.1	-6
COc1ccc2c(c1)/C(=N/OC(=O)c1cccs1)CCC2	1	0.8	16	1.1%	-4.7	-1
Cc1ccc(S(=O)(=O)N2C[C@H]3C(=O)C[C@@H]4C(=O)N(c5ccccc5)C(=O)[C@@H]4[C@@H]3C[C@H]2c2cccc(Cl)c2)cc1	5	-0.2	-5	12%	7.3	5
COc1cc(C#N)ccc1OC(=O)Cc1cc(OC)c(OC)c(OC)c1	14	-0.5	3	-1.0%	-2.2	-4
Cc1ccc(N(CC(=O)N2CCc3ccccc3C2)S(C)(=O)=O)cc1	5	-0.1	1	1.2%	1.7	-2
O=C(CSc1ncnc2scc(-c3ccccc3)c12)Nc1ccc(C(=O)O)cc1	4	-0.5	-5	-0.8%	-1.0	-5
C[C@H](NC(=O)c1ccco1)C(=O)Nc1ccc2c(c1)OCO2	10	-0.3	10	1.0%	-2.8	1
Cc1ccc(CN2C(=O)CCC2C(=O)N2CCN(c3ccc(F)cc3)CC2)cc1 (stereo not given)	3	-1.2	3	-1.0%	0.4	-14
CCOC(=O)c1cc([N+](=O)[O-])sc1N	48	-0.9	-8	2.0%	-4.4	-8
C[C@@H](NC(=O)OC(C)(C)C)C(=O)NCC1CCC(C(=O)N[C@@H](Cc2ccccc2)C(=O)O)CC1 (stereo not given in full)	31	1.2	-1	1.8%	0.4	-5
COc1ccc(-c2coc3c(C(=O)NCc4ccccc4)cccc23)c(C)c1	.	2.6	-2	0.3%	0.5	-8
O=C(Nc1ccc(Cn2ccnc2)cc1)c1cccc(C(F)(F)F)c1	-15	0.7	-3	7.5%	-0.2	0
O=C1C[C@@H]2CCN3C(=O)CCC[C@@H]([C@H]23)[C@H]1Cc1ccccc1	13	0.5	1	0.1%	-0.5	.
COc1ccc(CCCNC(=O)C2Cc3c(-c4cccc(C(N)=O)c4)ccnc3O2)cc1 (stereo not given)	.	-0.6	-10	10%	6.6	8
O=C(Nc1ccc(-n2cccn2)cc1)C1CCCCN1Cc1cccc2cccnc12 (stereo not given)	-3	0.5	-15	0.9%	-1.8	-27
O=C(COc1ccc(F)cc1)Nc1ccc(C(=O)OCc2cc(=O)n3nc(C4CC4)sc3n2)cc1	-18	0.0	.	1.8%	.	.
Cc1cc(-c2nnc(SCC(=O)Nc3ccccc3C)n2N)n[nH]1	24	-0.7	-2	0.7%	-2.2	-4
COc1ccccc1N1CC(O)=C(c2nc3ccccc3c(=O)[nH]2)C1=N	0	0.0	-6	.	-1.0	-7
O=C(N/N=C/c1ccc(OC(=O)c2ccccc2Cl)cc1)c1cc(O)cc(O)c1	-8	-0.3	-68*	6.5%	-1.2	-22
CC(=O)Nc1nc2ccccc2n1Cc1ccc(Cl)cc1	.	.	2	2.1%	-2.2	-6
CCN(CC)CCNC(=O)c1cc2c(-c3ccc(Cl)cc3)nn(C)c2s1	86	-0.2	?	2.9%	0.4	10
CCCCOC(=O)Nc1ccc(S(=O)(=O)Nc2onc(C)c2C)cc1	1	-0.7	1	1.2%	0.2	4
CCCCCOC(=O)C1=C(C)Nc2ncnn2C1c1cccs1 (stereo not given)	13	4.0	0	0.1%	-0.9	1
O=C(NC(c1ccc(-c2ccccc2)cc1)c1cnccn1)C1CCN(CCN2C(=O)c3ccccc3C2=O)CC1 (stereo not given)	.	-0.4	0	1.6%	-3.8	-8
O=C(CN(c1ccc2c(c1)OCCO2)S(=O)(=O)c1ccccc1)NCC1CCCO1 (stereo not given)	-4	0.3	15	1.2%	-0.4	11
CNC(=O)N1c2ccccc2C=Cc2ccccc21	19	1.4	0	2.1%	-0.7	2
COC(=O)C(NC(=O)c1ccccc1)=C(C)C	4	-0.8	4	1.2%	-2.2	-10
CC1=CC(=O)N(c2ccn(C)n2)C1=O	17	1.6	0	0.7%	-3.2	-6
CCOC(=O)c1ccc(NC(=O)CCc2nc(-c3ccccc3)no2)cc1	11	0.3	2	-2.2%	-1.0	25
COc1cccc(NC(=O)Nc2c(C)n(C)n(-c3ccccc3)c2=O)c1	-1	1.4	0	-2.6%	-0.7	0
c1ccc(-c2cc(-c3nnc4sc(-c5ccccn5)nn34)[nH]n2)cc1	16	-0.6	-29	27%	13	0
O=C(Nc1cccc(C(=O)N2CCCC2)c1)C1CCC1	1	0.4	-1	-1.1%	-1.1	1
O=C(COc1ccc(F)cc1Br)NCC1(N2CCCCC2)CCCCC1	-22	-0.8	5	11%	1.6	-2
O=C(CCCOc1ccccc1)NCCc1nc2ccccc2[nH]1	2	-1.6	1	13%	-6.0	-11
CCOc1ccc(N(Cc2ccc(OC)c(OC)c2)C(=O)c2ccco2)cc1	12	2.5	3	0.6%	-6.0	-6
COC(=O)CCCC1=CC2=CC(=O)C(C)(OC(=O)c3cccs3)C(=O)C2=CN1Cc1ccco1 (stereo not given)	-11	1.4	-9	-0.2%	5.0	13
CN(CC(=O)NCCc1ccc(S(N)(=O)=O)cc1)S(=O)(=O)c1cccc2nsnc12	6	-0.1	6	-2.3%	1.3	-6
Cc1c(C(=O)N2CCN(CCc3ccccn3)CC2)oc2ccc(F)cc12	-6	1.1	-1	-1.3%	-0.5	-19

A draw from above in order of molecular weight, ascending:
SMILES	TRPML1 blocker	TRPML1 ag	Six1-Eya2 inh	PINK1 modulator	D2 ag	D2 potentiator
c1ccc(-c2cc(-c3nnc4sc(-c5ccccn5)nn34)[nH]n2)cc1	16	-0.6	-29	27%	13	0
COc1cccc(NC(=O)Nc2c(C)n(C)n(-c3ccccc3)c2=O)c1	-1	1.4	0	-2.6%	-0.7	0
CCOC(=O)c1ccc(NC(=O)CCc2nc(-c3ccccc3)no2)cc1	11	0.3	2	-2.2%	-1.0	25
Cc1c(C(=O)N2CCN(CCc3ccccn3)CC2)oc2ccc(F)cc12	-6	1.1	-1	-1.3%	-0.5	-19
CCOc1ccc(N(Cc2ccc(OC)c(OC)c2)C(=O)c2ccco2)cc1	12	2.5	3	0.6%	-6.0	-6
O=C(COc1ccc(F)cc1Br)NCC1(N2CCCCC2)CCCCC1	-22	-0.8	5	11%	1.6	-2
CN(CC(=O)NCCc1ccc(S(N)(=O)=O)cc1)S(=O)(=O)c1cccc2nsnc12	6	-0.1	6	-2.3%	1.3	-6
